Screens as filed in PubChem BioAssay.
Rango dissoc inh: qHTS Assay for Inhibitors of RanGTP induced Rango (Ran-regulated importin-beta cargo) - Importin beta complex dissociation. actives 0.071% (n = 340,000). Potency, µM (titrated, usually from 46.1 µM), for inactives: at the highest dose activity change, negative = inhibition. Biochemical FRET Rango-importin beta, RanGTP-induced dissociation; active means falling FRET ratio curve, often poorly fitted, with flat reads before Ran was added; inconclusive means other falling curves, or compound fluorescence or quenching; inactive means flat or rising ratio curve;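 also: potency is read from the fitted curve at half-maximal effect; % of control where 0% means no effect; nearly all actives have a fitted effect of over 45% in size; -100% = wells without RanGTP and RCC1; the record marks most hits as doubtful in a second field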
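Rango FRET biosensor (snurportin-1 IBB flanked by N-terminal EYFP and C-terminal CFP10) at 0.1 uM, with 0.25 uM importin beta in PBS, 1mM DTT, 0.02% Tween-20, 0.1% BSA. 0.6 uM Ran, 2mM GTP and 0.2 uM RCC1 were then added for 45 min at room temperature. Inhibition read as loss of FRET rise.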
miR-21 reporter: qHTS Assay for Modulators of miRNAs and/orActivators of miR-21 | HeLa miR-21 FLuc reporter, luciferase, 48 h | Potency, µM (series often up to 38.3 µM), without a hit: at the top dose reporter change, positive = more light | 340,000 tested, under 10 active; active = well fitted rising curve with a large enough effect; inconclusive = small, poorly fitted or top-dose-only effect; inactive = no such curve, though single readings can be large or run the other way;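 also: % of control where 0% means no effect; miR-21 action dims this reporter so a rising signal means less miR-21 action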
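HeLa cells endogenously expressing miR-21, stably carrying CMV-driven firefly luciferase with a downstream miR-21 binding site, 2000 cells/well. Titrations up to approximately 40 uM, 48 hours; luciferase luminescence read.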
Rango-impB inh: qHTS Assay for Inhibitors of Rango (Ran-regulated importin-beta cargo) - Importin beta complex formation; Rango CFP/YFP FRET sensor + importin beta, 45 min; Potency, µM (series often up to 92.2 µM), for the others: at the top dose inhibition of complex formation; actives 0.031% (n = 340,000); active = rising FRET ratio curve, often small or poorly fitted; inconclusive = mostly compound fluorescence or quenching in the first reads; inactive = flat curves in all reads;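 also: potency is read from the fitted curve at half-maximal effect; 0% = DMSO wells and 100% = buffer wells lacking importin beta; nearly all actives have a fitted effect of over 15% in size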
Target sequence (Q14974 whole entry, looked up): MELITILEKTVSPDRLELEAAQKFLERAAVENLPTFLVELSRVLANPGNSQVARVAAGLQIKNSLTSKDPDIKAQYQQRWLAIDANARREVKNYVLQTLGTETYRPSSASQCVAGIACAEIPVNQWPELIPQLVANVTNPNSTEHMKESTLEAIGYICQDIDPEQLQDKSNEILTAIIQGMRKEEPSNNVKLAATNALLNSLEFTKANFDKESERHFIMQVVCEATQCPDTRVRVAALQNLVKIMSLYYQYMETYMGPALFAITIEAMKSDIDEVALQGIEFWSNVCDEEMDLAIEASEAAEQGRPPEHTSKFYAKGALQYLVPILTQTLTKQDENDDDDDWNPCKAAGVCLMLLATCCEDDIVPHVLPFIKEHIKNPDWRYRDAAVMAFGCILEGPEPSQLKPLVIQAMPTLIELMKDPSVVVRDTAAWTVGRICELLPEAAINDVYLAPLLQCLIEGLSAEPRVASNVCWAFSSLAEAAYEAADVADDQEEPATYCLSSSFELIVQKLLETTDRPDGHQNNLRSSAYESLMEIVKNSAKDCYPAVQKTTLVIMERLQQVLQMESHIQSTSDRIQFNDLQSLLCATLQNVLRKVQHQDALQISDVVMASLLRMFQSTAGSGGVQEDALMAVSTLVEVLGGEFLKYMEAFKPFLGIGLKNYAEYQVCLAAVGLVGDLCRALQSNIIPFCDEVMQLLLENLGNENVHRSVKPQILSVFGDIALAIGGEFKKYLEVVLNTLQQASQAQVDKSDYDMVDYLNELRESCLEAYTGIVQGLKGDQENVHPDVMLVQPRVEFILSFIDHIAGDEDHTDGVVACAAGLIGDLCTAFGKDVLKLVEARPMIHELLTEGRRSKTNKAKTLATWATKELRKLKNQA
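Inhibition scored from the CFP 486 nm/YFP 530 nm FRET ratio 45 min after adding 0.125 microM importin beta to 50 nM Rango biosensor preincubated 5 min with compound (room temperature, PBS with DTT, Tween-20, BSA). No-importin wells as positive control.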
GLA inh pH 4.5: qHTS Assay for Inhibitors of Human alpha-Galactosidase at pH 4.5; Alpha-galactosidase A (Homo sapiens), P06280; purified enzyme, 4-MU-alpha-Gal fluorescence, pH 4.5; activity change, negative = inhibition, % at 105 µM; 230,000 tested, under 10 active; AID 1467, 2008; inconclusive = small, poorly fitted or top-dose-only inhibition, or a rising curve; inactive = flat fitted curve, though single readings scatter; no compound was filed as active;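 also: 0% = full activity with enzyme and -100% = basal without enzyme; dose as in the result columns while the protocol names 77 µM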
Numbers without * were called inactive; u = inconclusive; x = no result given; & = joins results of further samples. These rows are one share of the data; the hit share may differ from the screen's.

SMILES	Rango dissoc inh	miR-21 reporter	Rango-impB inh	GLA inh pH 4.5
COc1ccc(C(=O)C2CCCN(Cc3ccc(NC(C)=O)cc3)C2)cc1OC (centres undefined)	6%	2%	4.5%	x
C=CCc1cccc(/C=N/n2cnnc2)c1O	u	-2%	u	3
CCOc1ccc(S(=O)(=O)/N=C(/Nc2ccc(OC)cc2)c2ccccc2)cc1	3%	-20%	0.0%	x
O=C(Nc1ccc(Cl)cc1F)c1cccc2ccccc12	-5%	-14%	3.0%	x
O=C1Oc2ccccc2C(=O)/C1=C\N1CCN(c2ccccc2)CC1	3%	4%	0.0%	0
CC1CCN(Cc2nnnn2CCCC(=O)NCC(C)(C)N2CCOCC2)CC1	-3%	-1%	2.4%	x
O=[N+]([O-])c1ccc2c(c1)N([O-])C1(CCCCC1)[N+]2=O	7%	-4%	-3.9%	-2
CCN1CCCC1CNC(=O)CSc1cc(=O)n(CC)c2ccccc12 (centres undefined)	7%	-2%	-3.6%	-3
O=C(NC(=S)Nc1ccc(C(F)(F)F)cc1)c1csnn1	18%	-9%	-10%	-5
CC1CCN(C(NC(=O)c2ccco2)C(=O)c2ccccc2)CC1 (centres undefined)	0%	-19%	-0.3%	3
Cn1nc(-c2ccc(Cl)cc2)c2cc(C(=O)N3CCN(c4ccccn4)CC3)sc21	-8%	0%	-0.3%	-14
COC(=O)/C=C/c1ccccc1S(=O)(=O)N(Cc1ccccc1)Cc1ccco1	4%	u	0.2%	3
COc1cc(CNc2ncc(-c3ccc(Br)cc3)n2C)cc(OC)c1O	1%	2%	u	x
CCOC(=O)C1(Cc2ccccc2C)CCCN(C(=O)c2sccc2C)C1 (centres undefined)	2%	2%	0.1%	x
COc1cc(-c2n[nH]c(=O)o2)cc(OC)c1OC	-3%	-13%	0.1%	-2
O=C(OCC(=O)N(CCc1ccccc1)Cc1ccccc1)c1ccccc1[N+](=O)[O-]	6%	x	0.0%	x
O=C(C1CCN(C2CCN(Cc3cccc4c3OCO4)CC2)CC1)N1CCOCC1	7%	-2%	0.0%	2
CC(=O)COc1ccc2c3c(c(=O)oc2c1C)CCCCC3	-12%	-71%	-2.8%	3
CS(=O)(=O)N1CCN(c2ccc([N+](=O)[O-])c3cccnc23)CC1	-11%	-7%	8.4%	-8
CCCCC(NC(C)=O)c1nc2ccccc2n1CCCC (centres undefined)	12%	-6%	1.3%	0

Full records, looked up by structure:
O=C(OCC(=O)N(CCc1ccccc1)Cc1ccccc1)c1ccccc1[N+](=O)[O-] as listed: Rango dissoc inh = 6%; miR-21 reporter = x; Rango-impB inh = 0.0%; GLA inh pH 4.5 = x
COc1cc(-c2n[nH]c(=O)o2)cc(OC)c1OC as listed: Rango dissoc inh = -3%; miR-21 reporter = -13%; Rango-impB inh = 0.1%; GLA inh pH 4.5 = -2
O=C(C1CCN(C2CCN(Cc3cccc4c3OCO4)CC2)CC1)N1CCOCC1 as listed: Rango dissoc inh = 7%; miR-21 reporter = -2%; Rango-impB inh = 0.0%; GLA inh pH 4.5 = 2

Next part.
SMILES	Rango dissoc inh	miR-21 reporter	Rango-impB inh	GLA inh pH 4.5
COC(=O)C(CO)NC(=O)C1CCCN1C(=O)CNC(=O)OCc1ccccc1 (centres undefined)	4%	-3%	0.0%	x
Cc1ccc(CNS(=O)(=O)c2ccc3c(c2)CCN3C(=O)C2CCC2)cc1	-6%	0%	0.0%	x
CCc1ccc(NC(=S)NC2CC3CCCC(C2)N3Cc2ccccc2)cc1 (centres undefined)	-18%	17%	1.3%	4
CCCOc1ccc(C(=O)O/N=C(\CC)c2ccc(C)cc2)cc1	1%	-8%	1.9%	-4
CN(Cc1ccccc1)c1ncnc2[nH]ncc12	1%	x	0.3%	x
CSc1ccc(/C=N/n2c(C3CCCCC3)n[nH]c2=S)cc1	11%	-7%	3.6%	x
COc1cccc(C2c3c(-c4cc(Cl)c(C)cc4O)n[nH]c3C(=O)N2Cc2cccnc2)c1 (centres undefined)	15%	-14%	-0.2%	-4
S=C1NC2=C(CCCC2=C2SCCS2)C(c2ccccc2)N1 (centres undefined)	6%	-7%	-0.6%	-2
O=C1CC(N(O)C2CC(=O)N(Cc3ccccc3)C2=O)C(=O)N1Cc1ccccc1 (centres undefined)	-10%	0%	1.6%	1
S=C(NCc1ccccc1)NCc1ccco1	-11%	0%	0.1%	x
COCCCNC(=O)c1cc(-c2cccnc2)nc2ccccc12	-19%	9%&-5%	1.0%	x
COc1ccccc1P(=O)(Cc1ccccc1[N+](=O)[O-])c1ccccc1 (centres undefined)	-13%	6%	-0.6%	x
O=C(N/N=C/c1ccccc1OC(F)F)C1=COCCO1	0%	-24%	-1.0%	6
O=C(O)CNC(=S)N(Cc1cccs1)C1CCCCC1	-16%	-2%	0.2%	2
O=c1cc(CN2CCN(c3ccccn3)CC2)nc2sccn12	-8%	-3%	0.2%	15
CC1(C)c2ccccc2N2CC(=O)NC21/C=C/c1ccco1 (centres undefined)	u	-1%	u	x
CC1(C)Cc2c(sc(NC(=O)Cc3ccccc3)c2C#N)CO1	7%	0%	-1.1%	4
COc1ccc(CCNC(=O)COC(=O)c2ccc(Br)o2)cc1OC	20%	7%	0.5%	10
COc1c(O)ccc(C2NC(=O)NC(C)=C2C(=O)Nc2ccccc2C)c1[N+](=O)[O-] (centres undefined)	2%	1%	-2.1%	3
Cc1ccccc1N(CC(=O)Nc1ccc(S(=O)(=O)N2CCOCC2)cc1)S(C)(=O)=O	5%	1%	-3.6%	4
CC(=O)Nc1ccc(S(=O)(=O)N(C)CC(=O)N/N=C/c2cccc(O)c2)cc1	-11%	0%	-1.8%	-6
CCC(CC)c1nnc(NC(=O)Cc2ccccc2[N+](=O)[O-])s1	-5%	-16%	2.2%	-2
Cc1nc(SCn2nnc3ccccc3c2=O)c2c(C)c(C)sc2n1	x	-1%	x	3
O=C1NC[C@@H](c2ccccc2)OC(=O)[C@H](Cc2ccc(F)cc2)C/C=C\C[C@@H]1CC(=O)N(CCO)Cc1ccccc1	34%	x	1.8%	x
Cc1cc(NC(=O)CCl)n(-c2nc3ccccc3s2)n1	-14%	-5%	0.1%	6
Cc1nc(Nc2ccccc2)sc1C(=O)c1ccccc1	0%	-46%	0.0%	-3
CCOc1ccc(NC(=O)C(C)NC(=O)c2ccccc2Cl)cc1S(=O)(=O)N1CCCC1 (centres undefined)	-1%	x	-3.3%	x
COc1cccc(/C=N/NC(=O)c2cnccn2)c1O	0%	-1%	4.4%	-12
CCCCn1c(N)c(N(CC(C)C)C(=O)c2cc3c(s2)CCC3)c(=O)[nH]c1=O	-8%	x	1.9%	x
COc1ccc(C(=O)Nc2cc(C(F)(F)F)ccc2-n2cncn2)cc1	0%	-6%	-0.4%	-2
Cc1cccc(NS(=O)(=O)c2ccc3nc(-c4ccccc4)[nH]c3c2)c1C	1%	9%&-2%	1.0%	3
O=C1CCCN1CC(O)CS(=O)(=O)c1ccc(Cl)cc1 (centres undefined)	-1%	-4%	1.3%	1
CCOc1ccccc1OCCn1ncc2ccc(OC)c(OC)c2c1=O	-8%	-31%	0.5%	-8
Cc1nnsc1-c1c(C(=O)N2CCOCC2)c(C)nn1-c1ccc(Cl)cc1	-6%	-3%	0.0%	3
Cc1cc(=O)oc2cc(OCC(=O)Nc3ccc(N4CCC(C)CC4)cc3)ccc12	u	-5%	0.6%	x
O=C(CSc1nnc(-c2ccccc2Br)o1)N1CCN(C(=O)c2ccco2)CC1	37%	-10%	0.3%	2
CC1Sc2ccc(S(=O)(=O)N3CCC(C(=O)N(C)Cc4ccco4)CC3)cc2NC1=O (centres undefined)	-13%	16%	-0.4%	x
CCOP(=O)(OCC)c1nc(-c2ccc(C)cc2)oc1N1CCOCC1	2%	x	2.2%	x
CCCCn1c(N)c(N(Cc2ccccc2OC)C(=O)C(C)C)c(=O)[nH]c1=O	-1%	0%	-1.0%	x
Cc1ccn2cc(C(=O)Nc3cccc(C(=O)NC4CC4)c3)nc2c1	-23%	x	4.3%	x
Cn1nc([N+](=O)[O-])nc1Sc1cccc2cccnc12	2%	u	3.3%	-2
O=C(NCCc1ccccn1)c1ccc2nc(Cc3ccccc3F)oc2c1	0%	-55%	1.3%	x
Oc1cnn(-c2ccccc2)c1	5%	-21%	0.0%	6
NC1=NC[C@H](c2ccccc2)N1CC1CCCCC1	2%	x	0.0%	x
O=C(NCc1ccccc1CN1CCCC1)c1cccc(S(=O)(=O)N2CCOCC2)c1	4%	x	3.6%	x
CCn1c(C)c(C(C)=O)cc(C#N)c1=O	0%	-1%	-0.8%	-7
Cc1cccc(C(=O)OCC(=O)Nc2ccccc2C(=O)NC2CC2)c1	-15%	x	-0.2%	x
CCOc1ccc2nc(COC(=O)c3ccco3)c(C(C)=O)[n+]([O-])c2c1	0%	-8%	u	-2
O=C(Nc1ccc(Cl)cc1)c1cc(S(=O)(=O)Nc2ccccn2)ccc1Cl	11%	1%	-2.1%	x
Cc1nnc(NC(=O)c2ccc(C)c(S(=O)(=O)N3CCOCC3)c2)s1	-2%	-1%	5.2%	10

Remaining list, next part
SMILES	Rango dissoc inh	miR-21 reporter	Rango-impB inh	GLA inh pH 4.5
Cc1ccc(C)c(OCCSc2nnc(C)c(=O)[nH]2)c1	-12%	-8%	1.9%	0
CCCOc1ccc(-c2c(C(=O)N/N=C/c3ccsc3)nnn2-c2nonc2N)cc1	-16%	0%	-0.4%	x
COC(=O)C1=C(C)NC(=S)NC1c1ccc(OCC(=O)N2CC(C)OC(C)C2)c(OC)c1 (centres undefined)	1%	x	-6.5%	x
O=C(CSc1ccccn1)Nc1ccc2c(c1)CCC2	-7%	x	-3.4%	x
CCOc1ccccc1CN1C(=O)c2ccccc2C1C(=O)NC(C)CC (centres undefined)	-8%	0%	0.3%	7
Cc1cc(C)nc(NC2=NCC(=O)N2c2ccccc2Br)n1	-12%	-6%	-3.5%	-10
CC(C)(C)CC(=O)Nc1nnc(SCC(=O)NCc2cccs2)s1	-2%	0%	-0.8%	-3
Cn1c(=NC(=O)c2ccc(S(=O)(=O)N3CCCc4ccccc43)cc2)sc2cc(S(C)(=O)=O)ccc21	-13%	-3%	1.2%	6
CCOC(=O)c1ccc(/C=N/O)[n+](Cc2ccccc2)c1	7%	12%	1.4%	x
Cc1ccc(C(=O)C(C)OC(=O)Cn2cnc3c2c(=O)n(C)c(=O)n3C)cc1 (centres undefined)	-16%	x	2.2%	x
Oc1ccc(N=Nc2ccccc2-c2nn[nH]n2)c(O)c1	1%	3%	-1.9%	x
CN(Cc1cc([N+](=O)[O-])c2cccnc2c1O)C1CCCCC1	x	-5%	x	-8
Cc1ccc(-n2c(SCCN)nnc2-c2cccc(C)c2)cc1	18%	0%	-1.1%	2
CNC(=O)CSc1nnc(-c2cnccn2)n1C	15%	0%	-2.7%	5
COc1cc(OC)cc(C(=O)N2CC(=O)Nc3ccccc32)c1	10%	13%	-1.4%	x
FC(F)Oc1ccc(-c2csc(NNC3=NCCCCC3)n2)cc1	14%	-12%	0.3%	u
N/C(COc1cccc(Cl)c1)=N\O	-11%	-2%	5.4%	-8
CCCc1cc(=O)[nH]c(SCC(=O)N(C)CC(=O)Nc2ccc(C)cc2)n1	11%	-2%	-1.6%	6
CNS(=O)(=O)c1cc(NC(=O)c2cncn2-c2ccccc2)ccc1C	16%	-16%	-1.8%	x
Cc1ccc(NCSc2ccc(Cl)cc2)cc1	0%	x	0.0%	x
CCN1CCN(c2ccc(S(=O)(=O)N3CCCCC3)cc2NC(=O)c2cc3ccccc3o2)CC1	-19%	x	2.2%	x
O=C(O)c1ccccc1-c1ccccc1C(=O)Nc1nc2ccccc2s1	11%	0%	-2.1%	-1
Cc1cnc(C(=O)OCC(=O)Nc2cc(Cl)ccc2C#N)cn1	-1%	x	-1.3%	x
